Cruzain inh noDet: inhibitors of Trypanosoma cruzi cruzain without detergent; purified cruzain, Z-FR-AMC fluorescence, no detergent; Potency, µM, inactives show max response, negative = inhibition, most hits filed as inhibitors; actives 2.3% (n = 200,000);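 note: plate controls were enzyme without inhibitor for no effect and buffer without enzyme for full effect; nearly all actives have a fitted effect of over 40% in size; top concentration of the series not given in the record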
Target sequence (P25779 123-467 limits assumed): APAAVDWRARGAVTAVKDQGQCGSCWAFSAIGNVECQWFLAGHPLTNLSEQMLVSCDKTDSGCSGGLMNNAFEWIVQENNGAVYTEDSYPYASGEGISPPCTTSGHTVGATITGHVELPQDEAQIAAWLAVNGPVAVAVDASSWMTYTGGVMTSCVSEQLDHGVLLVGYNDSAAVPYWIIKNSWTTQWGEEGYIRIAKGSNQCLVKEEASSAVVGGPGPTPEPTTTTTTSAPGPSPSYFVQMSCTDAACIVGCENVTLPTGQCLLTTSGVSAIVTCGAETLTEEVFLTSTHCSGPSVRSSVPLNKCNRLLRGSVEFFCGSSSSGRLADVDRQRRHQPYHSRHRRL
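Purified cruzain at 1.5 nM, pre-incubated 15 min with compound at room temperature in 100 mM sodium acetate pH 5.5, 5 mM DTT, 0.00005% Triton X-100. Reaction started with 2 uM Z-FR-AMC; AMC fluorescence increase over 60 s gives rate.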
MARV entry inh: inhibitors of Marburg virus binding or cell entry. AID 540276. actives 1.8% (n = 300,000). Marburg virus pseudotyped entry inhibition, cell reporter; control for the full effect not named in the record; about a third of the inactives were read at about 46 µM. Potency, µM (doses to about 37.8 µM), inactives show at the highest dose activity change, negative = inhibition, usual class: inhibitors; active = well fitted inhibition curve with a large enough effect; inconclusive = small, poorly fitted or top-dose-only effect, or effect the other way; inactive = flat fitted curve, though single readings scatter; tested in HEK293 cells; about a fifth of its hits are not listed in these tables; note: % is set by controls: 0 for no effect and ±100 for the full control effect; luciferase read-out
Lassa entry inh: blocks Lassa virus binding to or entry into cells. Lassa virus pseudotype entry inhibition, cell reporter; control for the full effect not named in the record. actives 1.2% (n = 300,000). Potency, µM (series often up to 37.9 µM), for inactives: at the highest dose activity change, negative = inhibition, usual class: inhibitors; active means well fitted inhibition curve with a large enough effect; inconclusive means small, poorly fitted or top-dose-only effect, or effect the other way; inactive means flat fitted curve, though single readings scatter; tested in HEK293 cells; note: % is set by controls: 0 for no effect and ±100 for the full control effect; nearly all actives have a fitted effect of over 50% in size; luciferase read-out
2A StopGo: lowers the luciferase signal of an FMDV 2A StopGo reporter; Potency, µM (titrated, usually from 57.9 µM), for inactives: top-dose signal change, negative = less light; actives 1.2% (n = 410,000); human cells with a luciferase reporter of 2A StopGo recoding; control for the full effect not named in the record; active = well fitted falling curve with a large enough effect; inconclusive = small, poorly fitted or top-dose-only effect; inactive = no such curve, though single readings can be large or run the other way; tested in HEK293T cells; note: % is set by controls: 0 for no effect and ±100 for the full control effect; nearly all actives have a fitted effect of over 45% in size; luciferase light after 4 h
NS1 inh: influenza NS1 inhibition | S. cerevisiae slowed by influenza A NS1, growth recovery by OD600 | Potency, µM (top dose mostly 46.1 µM), for the others: top-dose activity, positive = more growth | actives 0.4% (n = 270,000) | AID 2326; active means well fitted rising curve with a large enough effect; inconclusive means small, poorly fitted or top-dose-only effect; inactive means no such curve, though single readings can be large or run the other way; note: nearly all actives have a fitted effect of over 50% in size
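S. cerevisiae expressing influenza A NS1, grown in glucose, washed, then diluted 1:100 into pH 6.0 -URA galactose medium with 23 nl compound. Growth recovery read as OD600; NS1-free strain serves as control.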
Cruzain inh Det: inhibitors of Trypanosoma cruzi cruzain with detergent; actives 0.43% (n = 200,000); AID 1478; P25779; Potency, µM, without a hit: max response, negative = inhibition, usual class: inhibitors; purified cruzain, Z-FR-AMC fluorescence, 0.01% Triton;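 note: plate controls were neutral wells for no effect and buffer without enzyme for full effect; nearly all actives have a fitted effect of over 40% in size; top concentration of the series not given in the record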
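Detergent-containing arm of a paired screen for aggregation-based inhibition: 0.01% Triton X-100 present. Cruzain at 1.5 nM cleaved 2 uM Z-FR-AMC at pH 5.5 with 5 mM DTT; AMC fluorescence gain over 60 s measured activity.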
SARS PLpro yeast: blocks SARS-CoV papain-like protease in a yeast assay. S. cerevisiae expressing SARS-CoV PLpro, growth rescue; control for the full effect not named in the record. AID 485353. actives 0.19% (n = 330,000). Potency, µM (series often up to 32.9 µM), for inactives: top-dose activity, positive = growth rescue; active means well fitted rising curve with a large enough effect; inconclusive means small, poorly fitted or top-dose-only effect; inactive means no such curve, though single readings can be large or run the other way; note: 0% is about no effect; nearly all actives have a fitted effect of over 55% in size; growth read by luminescence after 48 h
RE007 growth inh: less growth of the S. pombe RE007 Vpr strain; actives 0.21% (n = 360,000); S. pombe RE007 Vpr strain, BacTiter-Glo ATP luminescence, 24 h; control for the full effect not named in the record; Potency, µM (titrated, usually from 92.2 µM), for inactives: top-dose activity change, negative = less growth; active = well fitted falling curve with a large enough effect; inconclusive = small, poorly fitted or top-dose-only effect; inactive = no such curve, though single readings can be large or run the other way;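 note: % is set by controls: 0 for no effect and ±100 for the full control effect; nearly all actives have a fitted effect of over 50% in size; the assay follows cell death caused by Vpr and the record does not say whether a fall means rescue or toxicity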
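Fission yeast strain RE007, carrying one chromosomally integrated HIV-1 vpr copy, was seeded at OD 0.01 in PMG+AL medium with 23 nL pinned compound. After 24 h at 30 °C and 99% humidity, viability was read by BacTiter-Glo luminescence.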
Active calls of the source: *; ? = inconclusive; / = no result given; & = joins results of further samples; [ ] = dose if it differs, or a comment. Unless noted, calls come from the whole dose curve; as a rule, active = well fitted curve in the direction sought with a large enough effect; inconclusive = small, poorly fitted or top-dose-only effect, or another doubt; inactive = no such curve, though single readings can be large; an effect the other way counts as inactive or inconclusive. Potency is the fitted concentration of half-maximal effect.

Compound	Cruzain inh noDet	MARV entry inh	NS1 inh	Cruzain inh Det	Lassa entry inh	2A StopGo	RE007 growth inh	SARS PLpro yeast
O=C(NCCCN1CCN(c2ccccc2F)CC1)C1CCN(S(=O)(=O)N2CCOCC2)CC1	1%	-8%&-8%	-4%	2.2%	13%	-18%	-8%	1%
COc1ccccc1N1CCN(c2ccc3ccccc3n2)CC1	/	?	0%	/	?	14%	-10%	-3%
COc1ccc(CNc2nc3c(-c4cccc(F)c4)nnn3c3ccccc23)cc1	-2%	?	/	-2.1%	14%[46.1 µM]	59%[activator]	/	/
CN1C(=O)[C@@H]2[C@@H]3C[C@@H]([C@H]4ON=C(c5ccc(Cl)cc5)[C@@H]34)[C@@H]2C1=O	5%	1%	7%	-1.5%	12%	?	-5%	-7%
CN(c1ccc(C(=O)NCCCn2ccnc2)cc1)S(C)(=O)=O	/	/	-9%	/	/	-14%	-25%	-7%
CO/N=C/C(C(C)=O)C(=O)Nc1ccc(Cl)cc1Cl (stereo not drawn)	/	?	-6%	/	?	-1%	-16%	-2%
CCCOC(=O)N[C@@H]1C(=O)N2C(C(=O)OCCC)=C(C)CS[C@H]12	/	/	-8%	/	/	-15%	3%	1%
CC1CCc2sc(C(=O)Nc3ccc(N4CCOCC4)cc3)cc2C1 (stereo not drawn)	/	/	-34%	/	/	-28%	0%	-4%

Carrying on.
Compound	Cruzain inh noDet	MARV entry inh	NS1 inh	Cruzain inh Det	Lassa entry inh	2A StopGo	RE007 growth inh	SARS PLpro yeast
COc1ccc(OC)c(CNc2sc3c(c2C(=O)Nc2cc(OC)ccc2OC)CCCC3)c1	0%	/	/	-3.5%	?	-17%	/	/
COc1ccccc1/C=N/Nc1nccnc1Cl	-8%	0%	1%	-3.4%	4%	/	-21%	1%
Cc1cccc(C)c1NC(=O)CN1C(=O)COc2ccccc21	/	?	?	/	20%	-13%	-5%	6%
CC(C)c1ccc(NC(=O)CSc2n[nH]c(=O)n2-c2cccnc2)cc1	/	0%[46.1 µM]	10%	/	4%[46.1 µM]	-23%	1%	0%
CCC(C)c1ccc(OCC(=O)Nc2ccc(-c3nc4ncccc4o3)cc2)cc1 (stereo not drawn)	14%	4%[46.1 µM]	/	-5.4%	18%[46.1 µM]	15%	/	/
CCC(c1nnc(SCC(=O)Nc2nnc(-c3ccccc3)o2)o1)N(C)C (stereo not drawn)	5%	-9%	-3%	-1.9%	-5%	34%[activator]	11%	-4%
COc1ccccc1N1CCN(C(=O)c2cnn(-c3ccc(C)c(C)c3)c2C2CCN(C(=O)OC(C)(C)C)CC2)CC1	?	/	/	-1.0%	?	-26%	/	/
COc1ccc(Cl)cc1C(=O)Nc1ccc2oc(-c3ccc(C(C)(C)C)cc3)nc2c1	16%	/	/	0.6%	20%[46.1 µM]	16%	/	/

(more compounds)
Compound	Cruzain inh noDet	MARV entry inh	NS1 inh	Cruzain inh Det	Lassa entry inh	2A StopGo	RE007 growth inh	SARS PLpro yeast
COc1cccc(/C=N/NC(=O)c2ccc3nc[nH]c3c2)c1	/	/	4%	/	/	31%[activator]	-17%	2%
CCc1cc2cccc(C)c2nc1SCC(=O)Nc1nonc1C	/	?	6%	/	11%[46.1 µM]	5%	1%	-1%
C/C(=N\O)c1cccc(Br)c1	/	/	4%	/	/	-5%	-1%	1%
O=C(O)CCC(=O)NCC1OCCc2ccccc21 (stereo not drawn)	0%	1%	7%	5.7%	10%	6%	4%	1%
Cc1cc(C)n2nc(SC(C)C(=O)N(C)c3ccccc3)nc2n1 (stereo not drawn)	/	13%	/	/	-16%	-13%	-8%	1%
CC1CC2(CC(C)(C(=O)CSc3nc4ccccc4s3)OC2=O)C(=O)O1 (stereo not drawn)	?	-2%	5%	-7.1%	16%	-3%	-7%	-1%
O=C(NC1CCCc2ccccc21)c1ccc(Cl)nc1 (stereo not drawn)	-4%	15%[46.1 µM]	-10%	0.7%	8%	-21%	-5%	1%
O=[N+]([O-])c1cccc(NC(=S)N2CCc3ccccc32)c1	/	/	-25%	/	/	-15%	0%	-4%

(next part)
Compound	Cruzain inh noDet	MARV entry inh	NS1 inh	Cruzain inh Det	Lassa entry inh	2A StopGo	RE007 growth inh	SARS PLpro yeast
CCc1n[nH]c2c1/C(=N\O)CC(c1ccccc1)C2 (stereo not drawn)	8%	-19%	-60%	-7.0%	-9%	-16%	-14%	1%
Cc1ccc(Cl)c(NC(=O)Nc2csc3c2CCCC3)c1	-4%	10%[46.1 µM]	/	-1.9%	/	34%[activator]	/	/
COc1ccc(N2CC(C(=O)N/N=C/c3c[nH]c4ccccc34)CC2=O)cc1 (stereo not drawn)	/	8%[46.1 µM]	/	/	-10%	-23%	8%	2%
Oc1nc(-c2ccc(Br)cc2)n2ccncc12	/	?	-1%	/	11%[46.1 µM]	-1%	-14%	0%
CC(=O)c1ccc(S(=O)(=O)N2CCN(C(C)=O)CC2)cc1	/	18%	-1%	/	12%	-1%	-11%	2%
Nc1nonc1-n1nnc(C(=O)N/N=C/c2ccc(Br)cc2)c1-c1ccc2c(c1)OCO2	/	?	6%	/	-5%[46.1 µM]	15%	5%	0%
CCCCc1c(C)nn(-c2nnc3c4ccccc4n(CC)c3n2)c1C	?	?	-36%	-5.8%	?	?	0%	1%
Cc1ccc([N+](=O)[O-])cc1-c1[nH]c(-c2ccc(O)c(O)c2)nc1-c1ccccc1	-16%	-24%	24%	-4.6%	-14%	-15%	12%	23%

Sorted by number of heavy atoms (largest number first): part of the list above.
Compound	Cruzain inh noDet	MARV entry inh	NS1 inh	Cruzain inh Det	Lassa entry inh	2A StopGo	RE007 growth inh	SARS PLpro yeast
Nc1nonc1-n1nnc(C(=O)N/N=C/c2ccc(Br)cc2)c1-c1ccc2c(c1)OCO2	/	?	6%	/	-5%[46.1 µM]	15%	5%	0%
Cc1ccc([N+](=O)[O-])cc1-c1[nH]c(-c2ccc(O)c(O)c2)nc1-c1ccccc1	-16%	-24%	24%	-4.6%	-14%	-15%	12%	23%
COc1ccc(N2CC(C(=O)N/N=C/c3c[nH]c4ccccc34)CC2=O)cc1 (stereo not drawn)	/	8%[46.1 µM]	/	/	-10%	-23%	8%	2%
CCCCc1c(C)nn(-c2nnc3c4ccccc4n(CC)c3n2)c1C	?	?	-36%	-5.8%	?	?	0%	1%
Cc1cc(C)n2nc(SC(C)C(=O)N(C)c3ccccc3)nc2n1 (stereo not drawn)	/	13%	/	/	-16%	-13%	-8%	1%
CC(=O)c1ccc(S(=O)(=O)N2CCN(C(C)=O)CC2)cc1	/	18%	-1%	/	12%	-1%	-11%	2%
O=C(NC1CCCc2ccccc21)c1ccc(Cl)nc1 (stereo not drawn)	-4%	15%[46.1 µM]	-10%	0.7%	8%	-21%	-5%	1%
CCc1n[nH]c2c1/C(=N\O)CC(c1ccccc1)C2 (stereo not drawn)	8%	-19%	-60%	-7.0%	-9%	-16%	-14%	1%
Oc1nc(-c2ccc(Br)cc2)n2ccncc12	/	?	-1%	/	11%[46.1 µM]	-1%	-14%	0%

The list continues:
Compound	Cruzain inh noDet	MARV entry inh	NS1 inh	Cruzain inh Det	Lassa entry inh	2A StopGo	RE007 growth inh	SARS PLpro yeast
Cc1ccc(S(=O)(=O)N(CC(=O)N2CCOCC2)C2CCCCC2)cc1	2%	-14%	5%	-0.7%	-2%	43%[activator]	1%	1%
CC(C)(C)c1ccc(S(=O)(=O)N2CCNC(=O)C2)cc1	/	13%[46.1 µM]	/	/	23%[46.1 µM]	4%	10%	0%
O=C(COc1ccccc1F)Nc1ccc2oc(-c3cccc(Cl)c3)nc2c1	11%	5%[46.1 µM]	/	1.2%	9%[46.1 µM]	-8%	/	/
O=C(Nc1ccc([N+](=O)[O-])cc1)Nc1ccc(Cl)cc1F	/	?	/	/	?	-29%	-10%	-2%
Fc1ccc(C2=Nn3c(nnc3-c3n[nH]c4c3CCC4)SC2)cc1	-5%	?	-26%	-0.3%	?	-18%	9%	-5%
CS(=O)(=O)N(CC(=O)O)c1cccc(Cl)c1	11%	?	3%	0.4%	15%	-13%	-10%	2%
Clc1cccc(Oc2ncc(CN3CCOCC3)s2)c1	8%	26%	-12%	0.3%	19%	23%	1%	3%
Cc1cc(C)c(S(=O)(=O)N(C)CC(N)=O)c(C)c1	-13%	-5%	4%	6.6%	4%	/	13%	0%

(listing goes on)
Compound	Cruzain inh noDet	MARV entry inh	NS1 inh	Cruzain inh Det	Lassa entry inh	2A StopGo	RE007 growth inh	SARS PLpro yeast
CCCCC(=O)Nc1nc2c(OC)cc([N+](=O)[O-])cc2s1	/	/	-4%	/	/	5%	-7%	0%
Cc1ccccc1CNC(=O)CCS(=O)(=O)c1cc2c3c(c1)CCN3C(=O)CC2	-2%	/	/	-5.7%	12%[46.1 µM]	-21%	/	/
COc1ccccc1CNC(=O)C(=O)c1cn(CC(=O)N2CCCC2)c2ccccc12	/	13%[46.1 µM]	0%	/	11%[46.1 µM]	-1%	5%	-1%
Cc1ccc(N(Cc2cc3ccc(C)cc3[nH]c2=O)S(=O)(=O)c2ccccc2)cc1	/	?	2%	/	-30%[46.1 µM]	-1%	-22%	4%
Fc1ccc(N2CCN(Cc3cnc(Oc4ccc(Br)cc4)s3)CC2)cc1	1%	4%[46.1 µM]	2%	0.6%	-10%	-28%	-24%	7%
O=C(Nc1ccc(Br)cc1)c1cc2ccccn2n1	/	/	-30%	/	/	-20%	-7%	-6%
COc1ccc(CN2CCNCC2)c(OC)c1OC	-4%	/	-2%	-1.7%	/	0%&-23%	-5%[18.4 µM]	-7%
Cc1cc(=O)c2cccc(Br)c2[nH]1	-2%	4%	0%	-0.3%	5%	4%	3%	13%
COc1ccccc1Cn1c(=S)[nH]c2cc(C(=O)NC(C)C)ccc2c1=O	/	/	6%	/	/	-3%	-4%	-1%
COC(=O)C1=C(C)N(CCc2cc(OC)c(OC)c(OC)c2)C(=O)N[C@H]1c1ccc(Br)cc1	-15%&-2%	-40%&-40%&-40%	-1%	1.5%&-7.5%	?	/	/	8%
